# Screening results as filed in PubChem.
# HIV TAR-Tat: HIV-1 TAR-Tat binding disruption | HIV-1 TAR RNA, Tat peptide displacement FRET; stronger effect = higher value | z-score (concentration not given with the values) | hit rate 0.6% among 100,000 | AID 1259389;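 also: score is relative to mean and SD of negative controls; some compounds called inactive have numbers as strong as hits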
# CDC25B CDK2 inh: human CDC25B-CDK2/CyclinA binding inhibition | AID 1259370 | HTRF CDC25B-CDK2/CyclinA binding, anti-His/anti-Flag; stronger effect = higher value | z-score (test concentration not listed) | P30305+P24941 | hit rate 0.72% among 94,000;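 also: score is relative to mean and SD of negative controls; strong numbers were not always called active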
# * marks the source's active call; other numbers are inactive results; / = no result given; & = joins results of further samples.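 The calls were made as follows: active = z-score from 3 up in half or more of its runs; inactive = the rest.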 No enrichment for hits; 0.87% or so of the library scored in one or more.
# Order of results: HIV TAR-Tat, CDC25B CDK2 inh
- CCN(CC)c1ccc(Nc2cc(C)nc3ncnn23)c(C)c1
    0.39, -3.28
- c1ccc(-c2nc(-c3ccncc3)no2)cc1
    0.36, -1.8
- O=C(Nc1ccc(Cl)cn1)C1c2ccccc2C(=O)N(C2CCCC2)C1c1cccs1 (configuration not stated)
    2.18, /
- O=C(COc1ccccc1)NC1C(=O)N2C(C(=O)O)=C(Cl)CSC12 (configuration not stated)
    -0.98, -0.42
- CCC1CN(S(=O)(=O)c2ccc(-c3ccc(=O)[nH]n3)s2)c2cc(C)ccc2O1 (configuration not stated)
    1.14, /
- Cc1ccsc1CN(C(=O)c1oc2ccc(F)cc2c1C)C1CCS(=O)(=O)C1 (configuration not stated)
    2.01, -0.97
- CCOC(=O)CSc1nc(N2CCOCC2)c2c(c1C#N)CC(C)(C)N(C)C2
    3.27, 0.33
- FC(F)(F)c1c2c(nc3c(-c4ccccc4)cnn13)CCC2
    -1.24, -0.94
- C=C(C)CSc1nc2c(c(=O)n1-c1ccccc1)CC1=C(CC(C)(CC)OC1)N2 (configuration not stated)
    /, -1.46
- COc1ccc2c(c1)CC(NC(=O)NC1CCCC1)CO2 (configuration not stated)
    0.56, /
- COc1ccc(Br)cc1-c1cc(C(=O)O)c2c(-c3ccccc3)[nH]nc2n1
    1.42, /
- Cc1cc(=O)nc2c3ccccc3n(CC(=O)Nc3ccccc3Br)n12
    -0.23, -1.45
- CCOC(=O)C1=NNC2C(=O)N(c3ccc(OC)cc3)C(=O)C12 (configuration not stated)
    0.73, -2
- CN1CCN(c2ccccc2/C=N\Nc2cc(Cl)ccc2Cl)CC1
    /, -1.58
- Cc1ccc(NC(=O)c2cc3c(=O)n4ccccc4nc3s2)cc1
    /, 0.06
- COC(=O)c1sccc1Nc1nc(-c2ccc(OC)cc2)no1
    0.02, 0.88
- O=C(CSc1ccc2nnc(-c3ccc(Cl)cc3)n2n1)N1CCCC1
    /, -0.57
- CC1=C(c2ccccc2)S(=O)(=O)N(CC(=O)N2CCc3ccccc32)C1=O
    1.68, /
- O=C(Nc1nonc1-c1ccccc1)C1COc2ccccc2O1 (configuration not stated)
    1.87, -2.15
- Brc1cccc(CN2CCc3nc(N4CCN(c5ncccn5)CC4)ncc3C2)c1
    -0.16, /

# Order of results: HIV TAR-Tat, CDC25B CDK2 inh
- Cn1c(SCC(=O)Nc2nc3ccccc3s2)ncc(C(=O)Nc2ccc(Cl)cc2)c1=O
    0.96, /
- CC(=O)N1CCc2cc(S(=O)(=O)NCC(=O)NCc3ccccc3)ccc21
    /, -1.51
- Cc1[nH]nc2c1C(c1ccc(O)cc1)N(C)C2=O (configuration not stated)
    0.12, -1.09
- Cn1c(=O)[nH]c(=O)c2c1nc(N1CCOCC1)n2CCSc1nc2ccccc2[nH]1
    /, -0.54
- C=CCn1c(=O)sc2cc(NC(=O)c3sccc3C)ccc21
    1.17, /
- O=c1ccc(-c2ccc(S(=O)(=O)Nc3ccc(F)cc3F)o2)n[nH]1
    1.46, /
- CCc1cc2c3c([nH]c2cc1S(=O)(=O)Nc1cccnc1)CC(C)(C)CC3=O
    1.07, /
- CC(C)(C)C(=O)NCCCN1CCOCC1
    /, 0.84
- COc1ccc(CC(=O)N2CC(=O)Nc3ccc(C)cc3C2c2ccc(F)cc2)cc1OC (configuration not stated)
    /, 0.93
- CCOC(=O)c1cccc(N2C(=O)C3C4C=CC(C4=C(c4ccccc4)c4ccccc4)C3C2=O)c1 (configuration not stated)
    /, -2.58
- CCOC(=O)CSc1nnc2c3ccccc3n(C)c2n1
    0.53, 0.67
- COC(=O)CN1C(=O)CSc2ccc(S(=O)(=O)Nc3cc(OC)ccc3OC)cc21
    0.01, /
- CS(=O)(=O)Nc1ccc2sc(NC(=O)C3CCCCC3)nc2c1
    1.46, /
- COc1ccc(Nc2c(-c3ccc(C)o3)nc3cnccn23)cc1
    -2.01, -1.81
- Fc1cccc(Cl)c1C1CC(c2cccc(Br)c2)Nc2nnnn21 (configuration not stated)
    1.91, /
- Cn1c2c(c(=O)n(C)c1=O)C(c1cccc(Oc3ccccc3)c1)CC(=O)N2 (configuration not stated)
    1.46, 3.24
- CCN(CC)CCOc1ccc2nc(N(C)C)sc2c1
    2.02, -2.01
- CCS(=O)(=O)c1nc(S(=O)(=O)c2ccc(Cl)cc2)c(NCCC(C)C)s1
    -2.02, -1.2
- CCOC(=O)c1sc2ccccc2c1S(=O)(=O)Nc1cc(OC)cc(OC)c1
    1.05, /
- Cc1ccc2nc(CN3CCN(S(=O)(=O)c4ccc5c(c4)oc(=O)n5C)CC3)oc2c1
    1.4, /

# Part of the list above in a different format.
O=C(Nc1nonc1-c1ccccc1)C1COc2ccccc2O1 (configuration not stated)
  HIV TAR-Tat: 1.87
  CDC25B CDK2 inh: -2.15

Brc1cccc(CN2CCc3nc(N4CCN(c5ncccn5)CC4)ncc3C2)c1
  HIV TAR-Tat: -0.16
  CDC25B CDK2 inh: /

Cn1c(SCC(=O)Nc2nc3ccccc3s2)ncc(C(=O)Nc2ccc(Cl)cc2)c1=O
  HIV TAR-Tat: 0.96
  CDC25B CDK2 inh: /

CC(=O)N1CCc2cc(S(=O)(=O)NCC(=O)NCc3ccccc3)ccc21
  HIV TAR-Tat: /
  CDC25B CDK2 inh: -1.51

# Following part
# Order of results: HIV TAR-Tat, CDC25B CDK2 inh
- CCCCN[C@H]1CS(=O)(=O)C[C@@H]1S(=O)(=O)c1ccc(C)cc1
    -1.75, -1.72
- CCOc1ccccc1NS(=O)(=O)c1cccc2cccnc12
    /, -1.66
- COc1ccc(S(=O)(=O)Nc2ccc3c(c2)sc(=O)n3C)cc1Cl
    1.15, /
- CCc1nnc(-c2cn(CC(=O)O)c3ccccc23)o1
    0.52, -1.8
- Cc1cc(Cl)ccc1OCc1nc(-c2ccc(Cl)cc2)no1
    /, -1.21
- Cc1cccc(C)c1NC1=NC2(CCCC2)N=C(N)N1
    /, 0.17
- Cc1cc2ccccc2c(=O)n1CC(=O)NCC1COc2ccccc2O1 (configuration not stated)
    /, -0.21
- CCc1ccc(N2C(=O)C3N=NN(Cc4nc(-c5ccc(C)cc5)oc4C)C3C2=O)cc1 (configuration not stated)
    -0.44, /
- CCCC1=C(C(=O)OCC)C(c2cccnc2)C(C#N)=C(N)O1 (configuration not stated)
    /, 0.73
- COc1ccccc1Nc1nc(Cl)nc(Nc2ccccc2OC)n1
    0.18, 0.42
- Cn1nc(C(=O)NCCN2CCOCC2)c2c1-c1ccccc1S(=O)(=O)C2
    1.46, -0.38
- Cc1ccc(Cl)cc1N1CCN(S(=O)(=O)c2cc(-c3c(C)noc3C)ccc2C)CC1
    -0.27, /
- O=S(=O)(c1ccc(C2CCCCC2)cc1)N1CCc2ccccc2C1
    /, -0.62
- COc1ccc(N(C)S(=O)(=O)c2ccsc2C(=O)O)cc1
    0.78, -0.97
- COc1ccc(-c2nc(=S)c3c([nH]2)Oc2ccc(C)cc2C3)cc1O
    -0.09, -1.56
- O=C(CCCC(=O)OCC(=O)c1ccc(Cl)c([N+](=O)[O-])c1)Nc1ccccc1Cl
    /, 0.3
- Cc1cccn2c(=O)c(C(=O)NCC3CCCO3)cnc12 (configuration not stated)
    2.42, /
- Nc1ccccc1SC(CC(=O)c1ccc(Cl)cc1)c1ccsc1 (configuration not stated)
    /, -0.4
- CN(C)c1ccc(C2CC(c3ccccc3)=NN2C(=O)CCCC(=O)O)cc1 (configuration not stated)
    0.08, 0.71
- O=C(O)CC1(Cc2nc(-c3ccc(Cl)cc3)no2)CCCC1
    2.45, -0.05

# Record cards, from the list above. Screens in order: HIV TAR-Tat	CDC25B CDK2 inh
# `Nc1ccccc1SC(CC(=O)c1ccc(Cl)cc1)c1ccsc1` (configuration not stated) across the screens: /	-0.4
# `O=C(CCCC(=O)OCC(=O)c1ccc(Cl)c([N+](=O)[O-])c1)Nc1ccccc1Cl` across the screens: /	0.3
# `Cc1ccc(Cl)cc1N1CCN(S(=O)(=O)c2cc(-c3c(C)noc3C)ccc2C)CC1` across the screens: -0.27	/
# `CCOc1ccccc1NS(=O)(=O)c1cccc2cccnc12` across the screens: /	-1.66
# `Cc1cc(Cl)ccc1OCc1nc(-c2ccc(Cl)cc2)no1` across the screens: /	-1.21

# (more compounds)
# Order of results: HIV TAR-Tat, CDC25B CDK2 inh
- NC1=NCCN1CC(=O)O
    1.25, /
- Cc1cccn2c(=O)c(C(=O)N3CCN(C)CC3)cnc12
    -2.25, /
- CCc1cccc(C)c1Nc1c(-c2cccnc2)nc2ncccn12
    0.42, -0.34
- COc1cc(-c2ccc(=O)[nH]n2)ccc1OC(F)F
    0.64, /
- O=C(NCC1COc2ccccc2O1)c1ccc(F)cc1 (configuration not stated)
    /, -0.59
- CCOc1cccc2c1N(C(=O)c1ccc(OC)cc1)C(C)(C)C(=S)C2=C1SC(C(=O)OC)=C(C(=O)OC)S1
    /, -3.17
- CN(CCc1ccccn1)C(=O)c1cccnc1Oc1ccc(Cl)cc1
    /, -1.4
- COc1ccc2c(c1)OC(c1ccccc1)CC2=O (configuration not stated)
    /, 0.63
- COC(=O)c1c(SC)nc2ccccc2c1OC
    1.01, /
- Cc1nc2cc3nc(C)sc3cc2s1
    /, 1.42
- C=CCN1C(=S)N[C@@H]2CS(=O)(=O)C[C@@H]21
    /, 1.27
- Cc1cccc2sc(NC(=O)c3cnc4sccn4c3=O)nc12
    /, -1.99
- O=c1/c(=C\c2ccc3c(c2)OCO3)sc2n1C(c1cccs1)C1=C(N=2)c2ccccc2CC1 (configuration not stated)
    /, -1.76
- Cc1cc(C)c2c(CC(=O)O)coc2c1
    /, -0.46
- Cn1nnc2cc(-c3noc(COc4ccc(Cl)cc4)n3)ccc21
    1.19, /
- O=C(CSc1nc2ccccc2nc1N1CCCC1)NC1CCCCC1
    -0.31, -1.42
- CC1=C(c2ccc(Cl)cc2)S(=O)(=O)N=C1Nc1cc(C)ccc1C
    0.79, -0.96
- COc1ccc(-n2cc[nH]c(=S)c2=O)cc1
    -0.19, -2.12
- O=C(N/N=C/C=C/c1ccccc1)c1ccccc1CO
    /, -2.35
- COc1cc(CCC(=O)Nc2c(C(=O)N3CCN(c4ccccn4)CC3)oc3ccccc23)on1
    1.62, -1.36

# Order of results: HIV TAR-Tat, CDC25B CDK2 inh
- COC(=O)c1cc(S(=O)(=O)N(CCCN2CCOCC2)C2CCN(C)CC2)cn1C
    1.13, /
- Cn1c(=O)c2c(nc(NCc3ccco3)n2Cc2cccc(Br)c2)n(C)c1=O
    1.5, -2.61
- CCOC(=O)c1cn[nH]c1S(=O)(=O)N1CCN(CC)CC1
    -0.15, /
- O=C(CSc1nnnn1-c1ccccc1)N1CCN(S(=O)(=O)c2ccccc2)C1
    0, -0.56
- COc1ccc(-c2noc(CN(C3CCCCC3)S(=O)(=O)c3ccc(F)cc3)n2)cc1
    0.49, 0.26
- COc1ccc(OC)c2c1cc1n2CC(C)(C(=O)NC2CCC(C)CC2)N(CC2CCCO2)C1=O (configuration not stated)
    2.03, /
- COc1ccc(OC)c(C2=NOC(C(=O)N3CCOCC3)C2)c1 (configuration not stated)
    1.37, -2.16
- COC(=O)Nc1nc2ccc(-c3n[nH]c(=O)c4ccccc34)cc2[nH]1
    /, 11.9
- Cc1cc(C)c2c3c(sc2n1)C(c1ccncc1)C(C#N)=C(N)O3 (configuration not stated)
    /, -0.53
- O=C(O)COCC(=O)Nc1nncs1
    0.32, -1
- CCN(CC)CC(=O)Nc1c(C)cccc1C
    -1.38&0.26, -0.79
- COc1ccc(C2NC(=O)NC(O)(C(F)(F)F)C2C(=O)c2ccc(F)cc2)cc1 (configuration not stated)
    /, -0.84
- CCNC(=O)c1c(NC(=O)C2COc3ccccc3O2)sc2c1CCCC2 (configuration not stated)
    -0.2, -1.73
- CCn1cc2c(n1)-c1c(oc(C(=O)NCCN(C)C3CCCCC3)c1C)CC2
    0.51, /
- CCCN1C(=O)c2cc3sccc3n2CC1(C)C(=O)NC1CCC(C)CC1 (configuration not stated)
    1.88, -1.13
- Cc1ccc(N2CCN(c3cnc4ccccc4n3)CC2)c(C)c1
    1.79, /
- COc1ccccc1-c1cc(C(=O)Nc2c(C)n(C)n(-c3ccccc3)c2=O)no1
    /, -0.57
- CC1(C23CC4CC(CC(C4)C2)C3)CC(=O)O1 (configuration not stated)
    /, -1.39
- CCOCCCN(Cc1ccco1)S(=O)(=O)c1ccc2c(c1)C(C)(C)C(=O)N2C
    -0.4, /
- CC(=O)Nc1nc(N)n(-c2ccccc2)n1
    /, -1.79

# Order of results: HIV TAR-Tat, CDC25B CDK2 inh
- CCOC(=O)C1CCN(c2ccc(C#N)cc2)CC1
    /, 0.25
- CCOc1ccc(C(=O)c2cc3c(CO)cnc(C)c3oc2=O)cc1
    1.12, -1.31
- CC1CCN(C(=O)C2=CC(c3ccco3)=NS(=O)(=O)N2C)C2CCCCC12 (configuration not stated)
    -0.54, 0.22
- CCC(C)n1cnc2scc(-c3ccccc3)c2c1=O (configuration not stated)
    0.39, -1.25
- Cc1ccc(Cn2cc(C(=O)c3ccccc3)c(=O)c3cc4c(cc32)OCO4)cc1
    -0.3, 1.71
- Fc1ccc(Nc2ncnc3onc(-c4cccc(Cl)c4)c23)c(F)c1
    1.9, -2.98
- Cn1nc(-c2ccccc2)cc1NC(=O)C1COc2ccccc2O1 (configuration not stated)
    /, -0.24
- COc1ccccc1CCN=C1NS(=O)(=O)C(c2ccc(C(C)C)cc2)=C1C
    1.4, 1.25
- CCCCCCCOC(=O)C1=C(C)Nc2ncnn2C1c1cccs1 (configuration not stated)
    0.04, 0.76
- CC(C)n1c(CCC(=O)O)ccc1-c1ccc(Cl)cc1
    2.05, -0.58
- O=c1c(Nc2cccc(Br)c2)c(-c2ccc3c(c2)CCCC3)c1=O
    0.37, /
- Cc1nc(-c2ccc(S(=O)(=O)Nc3ccc(F)c(Cl)c3)cc2)co1
    0.16, /
- COc1ccc(OCc2nc(C#N)c(N3CCCC3)o2)cc1
    /, -0.78
- CC12CN3CC(C)(CN(C1)C3c1ccc([N+](=O)[O-])o1)C2=O (configuration not stated)
    0.19, -0.95
